Assay outcomes deposited in PubChem BioAssay by several laboratories.
Mtb bLac sens: beta-lactam sensitization of Mtb H37Rv; M. tuberculosis H37Rv growth with meropenem, percent inhibition; hits of this screen are not shown here; inhibition, % at 25 µM; actives 0.27% (n = 330,000); AID 434955;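 active = about 74% or more and at least 40 points above the plate without the antibiotic, then above 30% in a dose series; inconclusive = first-round hits that could not be retested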;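 note: growth measured after seven days incubation then overnight dye step; 0% = bacteria only wells and 100% = bacteria with antibiotic; twin plates without the antibiotic show which effects depend on it; some results filed as inactive read as strong as hits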
RecA intein inh: blocks M. tuberculosis RecA intein splicing; P9WHJ3; cell-free RecA intein splicing, fluorescence; inhibition, %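 (about 9 µM by stock and volumes)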; actives 0.75% (n = 290,000); in the data active = inhibition above about 30%; inconclusive = no clear call, values can overlap the other calls;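 note: 0% = vehicle wells and 100% = reference inhibitor control wells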
Target sequence (P9WHJ3 whole entry, looked up): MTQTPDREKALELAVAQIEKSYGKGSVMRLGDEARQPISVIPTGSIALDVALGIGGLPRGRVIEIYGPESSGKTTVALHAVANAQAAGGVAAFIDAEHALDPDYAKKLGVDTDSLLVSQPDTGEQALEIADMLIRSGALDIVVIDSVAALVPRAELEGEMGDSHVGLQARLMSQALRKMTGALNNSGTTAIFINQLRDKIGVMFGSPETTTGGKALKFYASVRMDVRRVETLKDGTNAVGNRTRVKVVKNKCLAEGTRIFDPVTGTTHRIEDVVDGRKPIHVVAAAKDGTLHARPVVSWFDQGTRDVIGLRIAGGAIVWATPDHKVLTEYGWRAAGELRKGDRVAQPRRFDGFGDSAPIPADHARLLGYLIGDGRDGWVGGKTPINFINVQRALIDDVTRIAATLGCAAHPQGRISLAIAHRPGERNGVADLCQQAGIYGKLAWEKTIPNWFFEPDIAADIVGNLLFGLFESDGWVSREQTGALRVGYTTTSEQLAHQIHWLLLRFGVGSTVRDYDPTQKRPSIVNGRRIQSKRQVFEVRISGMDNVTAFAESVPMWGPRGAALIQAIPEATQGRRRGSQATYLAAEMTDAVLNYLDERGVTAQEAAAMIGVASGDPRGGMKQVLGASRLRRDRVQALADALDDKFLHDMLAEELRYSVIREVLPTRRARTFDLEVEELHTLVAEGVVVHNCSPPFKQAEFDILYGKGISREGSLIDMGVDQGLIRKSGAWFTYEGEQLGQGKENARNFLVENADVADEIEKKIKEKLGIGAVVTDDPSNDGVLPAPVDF
Mtb H37Rv: M. tuberculosis H37Rv growth inhibitors, H37Rv strain (AID 1626). M. tuberculosis H37Rv growth inhibition; higher % means a stronger effect. inhibition, % at 10 µM; hits with a dose series show IC50 in µM. actives 0.95% (n = 220,000);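 active = confirmed in a dose series; inconclusive = inhibition above 80% but not taken into the dose series; inactive = below 80% or under 30% at every dose of the series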;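 note: bacteria incubated seven days before Alamar blue readout; 0% = bacteria only wells and 100% = bacteria with antibiotic wells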
YopH PTP inh: inhibitors of Yersinia enterocolitica YopH tyrosine phosphatase | fluorescence Ex485/Em525 | inhibition, %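 (about 10 µM by stock and volumes)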 | actives 0.16% (n = 140,000) | AID 898;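 active = inhibition of 50% or more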;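 note: controls were vehicle for no effect and minimum signal wells for full effect; inactives centre near -20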
Arbovirus anti: arbovirus infection inhibition. arbovirus infection cell-based antiviral screen. inhibition, % at 10 µM. actives 0.37% (n = 200,000). AID 1251;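 active = inhibition from about 30%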;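 note: bluetongue infection of BSR cells; cell survival read as ATP light after 72 h; 0% = infected wells without compound and 100% = uninfected wells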
Arbovirus anti repeat: recorded beside Arbovirus anti, whose call it bears; inhibition, %; measured here: 10K subset replicate screen; many hits read low in the repeat;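 first of two repeat runs on a subset; 0% = infected and 100% = uninfected wells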
Numbers without * were called inactive; i = inactive; ? = inconclusive; nt = no result given.

SMILES	Mtb bLac sens	RecA intein inh	Mtb H37Rv	YopH PTP inh	Arbovirus anti	others
COc1cccc(/C=N/NC(=O)c2cccc(N3CCCC3=O)c2)c1	2	-3.8	nt	nt	nt
COc1ccccc1NC(=O)Nc1ccccc1SC	5	nt	6%	nt	6
COc1ccc(/C=C2/C(=O)N(c3cccc(F)c3)N=C2C)c(OC)c1	-2	46*	nt	nt	nt
CCOC(=O)c1cc(C(=O)c2cc(F)ccc2O)coc1=N	2	-7.5	nt	-41	1
O[C@@H](c1cc(C(F)(F)F)nc2c(C(F)(F)F)cccc12)[C@H]1CCCCN1	98	-4.8	nt	nt	nt
COc1ccc(C(CC(=O)O)NC(=O)c2cccs2)cc1 (stereo unspecified)	-9	-2.0	-6%	-32	-5
CC(=O)/C(=N/Nc1ccccc1Cl)Sc1nnc(C(O)c2ccccc2)n1-c1ccccc1 (stereo unspecified)	5	i	1%	-26	0
COc1ccc(N2C(=NC(=O)C(C)Oc3ccccc3)SC3CS(=O)(=O)CC32)cc1 (stereo unspecified)	5	2.6	nt	nt	nt
Cc1cccc(N(C(=O)Cc2cccs2)C(C(=O)NC2CCCC2)c2ccsc2)c1 (stereo unspecified)	nt	nt	-3%	-30	2
O=S(=O)(O)c1ccc(N=NNc2ccc(Br)cc2)cc1	74	3.3	nt	nt	nt
O=C1CC(N2CCN(c3ccc(O)cc3)CC2)C(=O)N1c1ccc2c(c1)OCO2 (stereo unspecified)	-2	-5.1	-1%	nt	-5
COc1ccc2[nH]c(CN3CCN(CC=C(C)C)C(CCO)C3)c(C)c2c1 (stereo unspecified)	-4	5.6	nt	nt	nt

Continued (five carried over from the part before).
SMILES	Mtb bLac sens	RecA intein inh	Mtb H37Rv	YopH PTP inh	Arbovirus anti	others
COc1ccc(N2C(=NC(=O)C(C)Oc3ccccc3)SC3CS(=O)(=O)CC32)cc1 (stereo unspecified)	5	2.6	nt	nt	nt
Cc1cccc(N(C(=O)Cc2cccs2)C(C(=O)NC2CCCC2)c2ccsc2)c1 (stereo unspecified)	nt	nt	-3%	-30	2
O=S(=O)(O)c1ccc(N=NNc2ccc(Br)cc2)cc1	74	3.3	nt	nt	nt
O=C1CC(N2CCN(c3ccc(O)cc3)CC2)C(=O)N1c1ccc2c(c1)OCO2 (stereo unspecified)	-2	-5.1	-1%	nt	-5
COc1ccc2[nH]c(CN3CCN(CC=C(C)C)C(CCO)C3)c(C)c2c1 (stereo unspecified)	-4	5.6	nt	nt	nt
Cc1ccnc(NS(=O)(=O)c2cccs2)c1	1	-1.6	-4%	-11	4
CCOC(=O)Cn1c(=O)oc2cc(S(=O)(=O)NCCCc3ccccc3)ccc21	-3	11	-1%	-26	-1
CCCCN(C(=O)NCCCCCCNC(=O)N(CCCC)C1CCS(=O)(=O)C1)C1CCS(=O)(=O)C1 (stereo unspecified)	-2	3.9	nt	nt	nt
CCC1CCCCN1C(=O)c1ccc(OC2CCN(C(=O)CCOC)CC2)cc1 (stereo unspecified)	-11	-8.7	nt	nt	nt
CN(C)/C=C/C(=O)c1ccc(-c2ccc(Cl)cc2Cl)o1	17	1.1	1%	nt	-4
C/C(=N\Nc1nc(Nc2ccccc2)nc(N2CCOCC2)n1)c1cccs1	74	-5.6	-1%	nt	-8
O=C(C1=C[C@H](c2ccc3c(c2)OCO3)C[C@H](OCCCCO)O1)N1CCN(Cc2ccccc2)CC1	-4	-0.7	0%	nt	-9
COc1cccc(CNC(=O)N2CCN(c3ccccc3)CC2)c1	2	-0.7	nt	nt	nt
O=C(C1CCN(C2CCN(CC3CC=CCC3)CC2)CC1)N1CCOCC1 (stereo unspecified)	-10	-1.2	-3%	nt	-17
Cc1ccc(Oc2cnn(-c3ccccc3)c(=O)c2Br)cc1	-6	-0.7	14%	nt	13
N/C(=N\OC(=O)Oc1ccccc1)c1ccc(Cl)cc1	-6	5.2	-12%	-32	6
COC(=O)C(Cc1ccccc1)NS(=O)(=O)c1ccc(F)cc1Br (stereo unspecified)	-6	0.4	2%	nt	nt
O=C(O)CC1(CC(=O)Nc2ccc(F)c(Cl)c2)CCCCC1	-3	nt	-21%	nt	nt
Cc1ccccc1C(=O)Nc1nncs1	-10	-0.8	4%	-15	4
CC(CCn1cccn1)NC(=O)c1cc(COc2ccc(F)cc2Cl)on1 (stereo unspecified)	-6	-0.3	2%	nt	-6
CCOC(=O)c1cnn(-c2ccccc2)c1NC(=O)CN1CCCCC1	-7	1.3	-5%	nt	nt
Cc1cccc(N2CCN(CCCNC(=O)c3ccc(NC(=O)C4=CSCCO4)cc3)CC2C)c1 (stereo unspecified)	97	-5.6	nt	nt	nt
COc1ccc(OCCn2c(=O)sc3ccccc32)cc1	-6	3.2	5%	nt	-4
Cc1nn(Cc2ccc(Cl)c(Cl)c2)c(C)c1NC(=O)c1cc(C2CC2)on1	73	3.2	30%	-5	11	Arbovirus anti repeat=-3
O=C(/C=C/c1c(F)cccc1Cl)Nc1ccncc1	2	-3.2	9%	-21	2
COc1ccccc1OCc1ccc(C(=O)Nc2cc(OC)c(OC)c(OC)c2)o1	8	0.4	nt	nt	nt
Cc1cccc(NC(=O)c2nc[nH]c2C(=O)N[C@@H](CC(C)C)C(=O)OC(C)(C)C)c1	72	-3.4	39%	nt	nt
CS(=O)(=O)N1CCCC(C(=O)c2cccc(Cl)c2)C1 (stereo unspecified)	1	-2.5	-8%	nt	8
COc1ccc(C(c2nnnn2CC2CCCO2)N2CCC(C(N)=O)CC2)cc1 (stereo unspecified)	-7	-1.8	2%	-13	1
C/C(CC(=O)Nc1cc(Cl)ccc1Cl)=N\NC(=O)COc1cccc(C)c1	6	5.1	nt	nt	nt
CC(=O)C1=C(O)C(=O)N(c2ccc(Br)cc2)C1c1ccccc1[N+](=O)[O-] (stereo unspecified)	-1	-3.3	nt	nt	nt
Cc1ccc(C(=O)Oc2coc(CSc3nnc(NC(=O)C4CC4)s3)cc2=O)cc1	0	0.6	nt	-11	-10
O=C(CC1NCCc2ccccc21)Nc1ccccc1 (stereo unspecified)	-3	11	1%	nt	-4
COC(=O)c1sccc1Oc1ccc(F)cc1[N+](=O)[O-]	-18	-2.8	3%	-8	3
COc1ccc(NC(=O)C2(c3ccc(NC(=O)c4ccc(OC)cc4)cc3)CCCC2)cc1	4	0.1	7%	-24	-4
COc1ccc2nc(-n3c(O)c(C4=c5ccccc5=NC4=O)[nH]c3=S)sc2c1	72	2.8	?	6	-14
CCCCn1c(SCC(=O)Nc2nccs2)nc2ccccc2c1=O	13	0.3	-6%	-31	2
Cn1ncc(Br)c1C(=O)NCc1cccs1	nt	-1.4	-5%	-20	-1
O=C(COc1ccccc1Br)NCCc1nc2ccccc2[nH]1	4	1.6	-5%	-19	1
OCC1(CCOc2ccccc2)CCN(Cc2ccncc2)CC1	-3	1.2	nt	nt	nt
CCc1cccc(NC(=O)CN(c2ccc(C)cc2)S(=O)(=O)c2c(C)noc2C)c1	3	11	nt	nt	nt
CCC(=O)NC(=S)Nc1ccc(NC(=O)c2cccc([N+](=O)[O-])c2C)cc1	nt	0.1	28%	-16	-1
CN1CCN(c2ccc([N+](=O)[O-])cc2NC(=O)c2cccs2)CC1	0	-0.4	nt	nt	nt
CCN(CC(=O)Nc1ccc2c(c1)OCCO2)c1ccc(S(=O)(=O)N2CCOCC2)cn1	-3	-1.1	-2%	15	-3
CS(=O)(=O)c1cnc(-c2ccccc2)nc1Oc1ccc(Cl)cc1	-11	0.3	4%	-29	-2
Cc1ccc(CNc2ccc(O)cc2)cc1	nt	85*	nt	-19	0
CCOC(=O)C1CCN(S(=O)(=O)c2ccc3c(ccn3C)c2)CC1	7	4.6	nt	nt	nt
O=C1CC(NNC(=O)c2cccc(F)c2)C(=O)N1 (stereo unspecified)	-8	0.6	-6%	nt	nt
CCOC(=O)/C(C#N)=C1\CCCN1CC(N)=S	-4	nt	11%	-23	0
C#CCNC(=O)C1=C[C@H](C2CCCCC2)[C@@H](CCCO)[C@H](OCC)O1	6	-1.8	-10%	nt	2
CCN(CC)c1ccc(CC2C(=O)N(C)C(=O)N(C)C2=O)cc1	-3	5.9	4%	5	6
Cn1c(CSc2nc3ccccc3s2)nnc1SCC(=O)NCCCN1CCOCC1	-9	1.5	-3%	-15	19
CC1CN(Cc2ccccc2Cl)CC(C)O1 (stereo unspecified)	7	0.8	-4%	-21	-3
CC(=O)c1ccc(N2CCN(c3ncccn3)CC2)c([N+](=O)[O-])c1	8	6.2	nt	nt	nt
COc1cc(C)nc(NC(=O)NC(=O)c2ccc(C(F)(F)F)cc2)n1	2	0.0	nt	nt	nt
Clc1cccc2sc(N3CCCC3)nc12	3	2.0	-9%	-5	15
Fc1ccc(-c2nnsc2Sc2ccccn2)cc1	1	0.6	7%	nt	-7
Cc1cccc(NC(=O)c2ccccc2OCC(=O)N2CCCC2)c1C	2	-6.1	6%	nt	2
CCCCNS(=O)(=O)c1ccc(NC(=O)C2c3ccccc3Oc3ccccc32)cc1	3	-1.8	7%	-26	-15
CN1CCN(C2=NC3(CCCC3)C(C#N)C(=O)N2)CC1 (stereo unspecified)	-7	-0.2	-1%	2	-5
CC(C)(C)NC(=O)NC(=O)CSc1n[nH]c(-c2ccccc2Br)n1	-5	-6.8	-1%	nt	12
Cc1ccc2nc(C)c3c(c2c1)COC3	-3	1.2	9%	-1	7
CCC(=O)Nc1c(-c2ccccc2Cl)c(=O)c2ccccc2n1CC	-3	-0.4	nt	nt	nt
O=[N+]([O-])c1ccc(Oc2c(F)c(F)nc(N3CCCC3)c2F)cc1	-7	8.8	nt	-6	3
CN(CCCN1CCOCC1)C(=O)c1cc(COc2ccc(F)cc2F)on1	2	0.7	nt	nt	nt
The list goes on:
SMILES	Mtb bLac sens	RecA intein inh	Mtb H37Rv	YopH PTP inh	Arbovirus anti	others
Cc1cc(C)n(CCNS(=O)(=O)c2ccccc2)n1	-4	-0.1	nt	nt	nt
C=CCN(CC=C)CCCOc1ccccc1C(=O)OC	2	-2.8	1%	nt	2
C/C(Cc1ccccc1)=N\NC(=O)CNC(=O)COc1ccccc1	1	-2.7	-9%	nt	nt
CC(C)CNc1c(N)c(=O)oc2ccccc12	8	0.1	-11%	7	5
O=S(=O)(c1cccc(F)c1)N1CCC(CO)(Cc2cccc(F)c2)CC1	0	3.1	4%	nt	-1
CCN(CC)c1ccc(NC(=O)Cn2c(C(C)NC(=O)c3ccccc3)nc3ccccc32)cc1 (stereo unspecified)	-2	-4.5	-11%	-18	-13
CC1CC(C)CN(CCCNC(=O)CN2C(=O)COc3ccc(S(=O)(=O)N4CCOCC4)cc32)C1 (stereo unspecified)	-1	-0.4	nt	nt	nt
O=C(CC1c2ccccc2Oc2ccccc21)NCc1ccco1	4	2.6	-6%	-41	-9
CCOC(=O)C1=C(C)NC(C)=C(C(=O)OCC)C1C(=O)OCC(=O)N1CCc2ccccc2C1	-1	3.4	-10%	-12	-2
Cc1cc(=O)n2c(C(=O)Nc3ccc(C(=O)OC(C)C)cc3)c(C(=O)Nc3ccccc3)sc2n1	3	1.2	-2%	nt	4
O=C(Oc1c(-c2ccccc2Cl)oc2ccccc2c1=O)c1ccc(Cl)cc1	nt	19	?	-17	9
Cc1c(C)n(C(=O)CSc2nccn2C)c2ccccc12	-9	1.3	-2%	5	0
C(=N\N1CCN(C(c2ccccc2)c2ccccc2)CC1)/c1ccc2c(c1)OCO2	-6	0.1	-3%	nt	-8
CCC(=O)Nc1cc(C(C)C)c(O)cc1C	-2	-1.1	-11%	7	5
O=C(Cn1[nH]c(=O)c2ccccc2c1=O)OCC(=O)N1CCCc2ccccc21	0	1.0	-9%	-2	12
COCCCN(C(=S)Nc1ccc(C)cc1Cl)C(C)c1ccncc1 (stereo unspecified)	6	1.6	5%	-8	-10
CSC1=NCCN1C(=O)c1ccc(Br)o1	-4	1.8	11%	7	-4	Arbovirus anti repeat=-1
O=C1c2ccccc2S(=O)(=O)N1CCS(=O)(=O)c1ccc(F)cc1	-7	1.7	nt	nt	nt
C/C(=N\N=C(/N)SC1CC(=O)N(c2ccc(Cl)c(Cl)c2)C1=O)c1cccs1 (stereo unspecified)	98	7.5	?	-46	-45
N[C@@H](Cc1cc(I)c(O)c(I)c1)C(=O)O	-7	-2.9	4%	-53	5
COc1ccc(NC(=O)CN(C)S(=O)(=O)c2ccc3c(c2)CCC(=O)N3)c(OC)c1	1	-1.8	0%	-10	3
COc1ccc(C(=O)NCC(=O)OCc2ccc([N+](=O)[O-])cc2)cc1	1	-0.2	8%	nt	2
CCOC(=O)/C(C#N)=N/Nc1ccccc1OC	8	-2.5	13%	-6	0
Cc1ccc(/C=C(/NC(=O)c2ccccc2)C(=O)NCCc2c[nH]c3ccccc23)o1	-4	5.0	-10%	-8	-6

Some of the compounds tested; count on the stated rates, not on these rows.
